Screening results: PubChem, several laboratories
MT1-MMP act inh = inhibitors of human MT1-MMP activation. P50281. HT1080 RFP-PRO-GFP cells, GFP/RFP ratio fluorescence, overnight; percent of plate control window, DMSO zero. GFP/RFP ratio change, % at 20 µM. hit rate 0.061% among 360,000. AID 651647;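 active means GFP/RFP ratio change of at least 30% with cell ATP level not reduced by more than half and red fluorescence within 50% of control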; further: strong numbers were not always called active
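Material: RFP-PRO-GFP reporter HT1080 cells. Dosing: single-point 20 µM compound, 1% DMSO. Controls: DMSO and RFP-L50D-GFP cell wells. Timing: cells overnight before dosing, compound overnight, 37 °C, 5% CO2. Measure: GFP/RFP fluorescence ratio.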
CSC inhib = blocks cancer stem cells | cancer stem cell-like cells viability, luminescence | hit rate 1.1% among 300,000 | inhibition, % at 7.5 µM | AID 2717;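 active means mean at 75% or more and at least half the replicates too; inconclusive means mean and replicates disagree; tested in HMLE shEcad cells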;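 further: 0% = median of negative and 100% = median of positive control wells; the first replicate is given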
Rce1 inh = blocks yeast Ras-converting enzyme. yeast membranes, quenched prenylated peptide cleavage fluorescence. hit rate 0.27% among 290,000. Q03530. calls only;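 active means fall in fluorescence gain of 50% or more versus controls, with final raw signal at or below 3038400; inconclusive means same 50% fall but final raw signal above 3038400; inactive means fall in fluorescence gain under 50%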;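 further: plate controls were neutral control wells for no effect and wells lacking membranes for full effect; tested at 10 µM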
Target sequence (Q03530 whole entry, looked up): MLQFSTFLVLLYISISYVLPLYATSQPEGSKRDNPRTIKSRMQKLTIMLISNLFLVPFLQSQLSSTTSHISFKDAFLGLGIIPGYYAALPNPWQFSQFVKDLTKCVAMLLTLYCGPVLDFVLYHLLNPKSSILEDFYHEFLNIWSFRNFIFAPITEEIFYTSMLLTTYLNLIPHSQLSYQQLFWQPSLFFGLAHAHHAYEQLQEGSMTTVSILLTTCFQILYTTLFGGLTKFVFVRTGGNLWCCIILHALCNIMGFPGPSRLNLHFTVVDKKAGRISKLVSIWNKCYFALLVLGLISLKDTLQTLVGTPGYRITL
eIF4H FP inh = inhibitors of RNA binding by human eIF4H; hit rate 0.94% among 290,000; inhibition, % at 35 µM; Q15056; AID 2012; eIF4H fluorescence polarization binding assay;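 active means 50% or more with normal probe brightness, or confirmed in later tests; inconclusive means above 50% with abnormal brightness, or retests that disagree; inactive means below 50% or failed in later tests; about a fifth of its hits are not listed in these tables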;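 further: calls also rest on retests at 20 µM and on dose response follow-up; 0% = protein and probe with vehicle and 100% = probe without protein; strong numbers were not always called active; many hits fall short of the cut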
UUG fidelity = yeast start codon fidelity modulation | hit rate 0.13% among 350,000 | activity score, % at 18.7 µM | S. cerevisiae UUG-firefly luciferase reporter, luminescence/redox ratio;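 active means replicate mean at a twofold rise or more, about +100% in these data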;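 further: firefly luciferase made from a UUG start codon reports start codon fidelity; reporter light over untreated wells divided by growth signal over untreated wells; some hits fall short of that in this replicate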
PABP polyA inh = blocks human PABP binding to poly(A) RNA. P11940. fluorescence polarization. inhibition, % at 35 µM. hit rate 1% among 290,000. AID 2014;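 active means 50% or more with normal probe brightness, or confirmed in later tests; inconclusive means above 50% with abnormal brightness, or retests that disagree; inactive means below 50% or failed in later tests; about a fifth of its hits are not listed in these tables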;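 further: calls also rest on retests at 20 µM and on dose response follow-up; controls were probe without protein and protein plus probe with vehicle; some compounds called inactive have numbers as strong as hits; many hits fall short of the cut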
Env fusion inh = blocks HIV Env-driven cell-cell fusion. HeLa-JRFL Env/CEM21 cell fusion, luciferase. inhibition, % at 12.3 µM. hit rate 1.1% among 360,000;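 active means mean replicate inhibition score of at least 50 and every replicate individually at or above 50; inconclusive means only one of the two criteria met; inactive means mean below 50 and not all replicates reaching 50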;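 further: 0% = plate neutral controls and 100% = maraviroc near 300 nM; one replicate is shown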
MT1-MMP act inh RFP = further read-out of MT1-MMP act inh, marked with its call; RFP signal change, %; measured here: RFP expression control read;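 0 = vehicle wells; hits needed this value within 50% of zero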
* marks the source's active call; other numbers are inactive results; i = inactive; ? = inconclusive; · = not tested or not shown.

SMILES	MT1-MMP act inh	MT1-MMP act inh RFP	CSC inhib	Rce1 inh	eIF4H FP inh	UUG fidelity	PABP polyA inh	Env fusion inh
CCN1C(=O)[C@H]2[C@@H](c3ccc(Cl)cc3)N3C(=O)CN(Cc4ccccc4)C(=O)[C@@]3(C)[C@H]2C1=O	3	4	3	i	-8	-9	4	10
CCOC(=O)c1nc(Nc2ccc(N3CCOCC3)cc2)c2ccccc2n1	1	1	-5	i	-10	-14	6	-5
CCn1cc(C(=O)N2CCN(c3ccc(OC)cc3)CC2)c(=O)c2cc(S(=O)(=O)N3CCOCC3)ccc21	-4	-1	20	i	11	-18	-4	-2
COc1ccccc1NC(=O)C(C)OC(=O)CCSc1ccc(F)cc1 (configuration not stated)	-3	4	-14	i	·	-25	·	-5
CCCn1nc(NC(=O)C(C)C)c2cc3cc(OC)ccc3nc21	-1	-1	-5	i	-4	-17	-3	-24
OCCCNc1ncnc2c1ncn2[C@H]1CN(Cc2ccncc2)C[C@@H](CO)O1	-1	6	·	·	·	-16	·	4
CCCCN(C)CCNC(=O)C1CCCN(S(=O)(=O)c2cccc3nsnc23)C1 (configuration not stated)	0	4	-8	i	0	-17	-8	6
COc1ccc(N(CC(=O)NCc2ccccc2OC)S(=O)(=O)c2ccccc2[N+](=O)[O-])c(OC)c1	2	2	-9	i	-2	·	6	28
CCOc1cc(C2NN=C(c3ccccc3)S2)ccc1OCc1ccc(F)cc1 (configuration not stated)	-3	-5	0	i	0	-2	-3	-183
NC(=O)C1CCN(C(=O)C(=O)c2cn(CC(=O)N3CCCC3)c3ccccc23)CC1	-4	2	-9	i	3	-17	0	-19
COc1ccccc1Nc1nc(C)c(C(=O)Nc2ccccc2)s1	5	-3	5	i	-10	7	-2	-29
NC(=O)c1ccc(NC(=O)COC(=O)c2ccc([N+](=O)[O-])cc2)cc1	2	3	-1	i	-2	·	1	6
CCCCCNc1ncnc2c(C)[nH]nc12	1	-21	·	·	·	1	·	-37
CCn1c2ccccc2c2cc(/C=N/NC(=O)c3ccccc3C)ccc21	-1	-12	71	i	-2	-4	-12	·
CC1=CC(=O)C2(C)C(C)=C(C)C12C (configuration not stated)	-1	1	·	·	·	-8	·	2
CCOC(=O)C1CCCN(CCC(=O)Nc2cc(OC)ccc2OC)C1 (configuration not stated)	2	0	12	i	4	-9	-3	13
Fc1nc(F)c(F)c(NCCCNc2c(F)c(F)nc(F)c2F)c1F	6	-5	22	i	-2	·	-2	8
O=c1[nH]c(C2CCN(S(=O)(=O)c3ccc4c(c3)OCCO4)CC2)nc2c1nnn2Cc1c(F)cccc1Cl	-5	-6	21	i	-1	-15	4	29
O=C(Nc1cc2c3c(c1)CC(=O)N3CCC2)c1cccc(F)c1	-2	4	-5	i	·	-19	·	-4
O=C(CSc1nnc(-c2ccncc2)n1Cc1ccccc1)Nc1nccs1	1	4	2	i	-5	-25	6	-67
O=C(NCc1ccc(F)cc1)C(=O)NCC1CCCN1S(=O)(=O)c1ccccc1 (configuration not stated)	1	-4	-5	i	·	-6	·	-12
COc1cc(/C=C2\SC(N3CCc4ccccc4C3)=NC2=O)cc(OC)c1OC	4	1	18	i	5	-3	36	19
COc1ccc(C(=O)COC(=O)CCn2nnc(-c3cccs3)n2)cc1	1	2	-10	i	5	-18	9	-23
CC1CCN(C(=S)c2ccc(N(C)C)cc2)CC1	-5	-4	8	i	-18	-20	-1	-16
Cc1cc(C(=O)Nc2ccccn2)no1	-2	3	9	i	-8	4	1	·
CCn1ncc(C2=NOC(C(=O)N3CCN(c4ccccc4)CC3)C2)c1C (configuration not stated)	5	2	-9	i	-5	3	18	·
COc1ccccc1C1/C(=C(/O)c2ccc(Cl)cc2)C(=O)C(=O)N1CCN1CCOCC1 (configuration not stated)	4	9	·	i	-4	-15	2	·
Nc1cc(S(=O)(=O)N2CCCCC2)ccc1N1CCOCC1	5	0	-1	i	-2	·	-2	-13
CC(Cc1cccs1)NC(=O)Nc1ccc(F)cc1 (configuration not stated)	2	2	-19	i	1	-4	-2	-10
Cc1cc2c(c(SCC#N)n1)C(=O)OC2	-3	2	-11	i	1	-19	-6	0
CCOC(=O)c1c(NC(=O)COC(=O)c2ccc(O)cc2)sc(C(=O)N(C)C)c1C	-4	-8	-13	i	-14	-9	-4	10
Cc1cccc(NC(=O)N2C3CCCC2CC(NC(=O)C(C)(C)C)C3)c1 (configuration not stated)	-2	-1	1	i	-11	-17	-2	0
COc1ccccc1-n1cnnc1SCC(=O)NC1CCCCC1	7	5	-7	·	·	-11	·	-5
COc1ccc(CN2CCC(Oc3ccc(C(=O)NCc4ccccn4)cc3)CC2)c(F)c1	2	-2	1	i	7	-14	-1	-83
Cn1cnnc1SCC(=O)c1ccc(O)c(O)c1	-3	3	·	·	6	-16	-18	-3
Cc1ccc(C)c(CN2C(=O)CSc3ccc(C(=O)NCCN4CCOCC4)cc32)c1	0	-7	·	i	-2	-1	5	-12
O=C(Nc1ccc(NC(=O)c2ccccc2F)cc1)c1ccccc1F	-2	-3	·	i	8	8	3	-3
CCOP(=O)(OCC)C(NC(=O)Nc1ccc(Cl)cc1)C(=O)N(CC)CC (configuration not stated)	0	-1	0	i	13	-2	0	-1
Cc1c(C(=O)OCC(=O)NCC2CCCO2)oc2ccccc12 (configuration not stated)	33*	-4.9*	-15	·	·	·	·	-8
CCn1c(SCC(=O)NC2CC2)nnc1-c1ccncc1	1	3	-3	i	-10	-19	-4	-10
CC12CCC(=O)N1C(C(=O)NNC(=O)c1ccc(F)cc1)CS2 (configuration not stated)	12	0	-9	i	·	·	·	20
Cc1ccc(C)c(NS(=O)(=O)c2cc(C(=O)N3CCc4ccccc4C3)ccc2Cl)c1	-10	-19	18	i	0	17	4	·
COc1ccc(C(C)=O)cc1COC(=O)c1cnc(Cl)c(Cl)c1	-4	-1	2	i	11	-3	-4	-49
COc1cc(C=O)ccc1Oc1cnccn1	-1	2	-10	i	4	-13	-8	-5
O=C(O)c1cc(S(=O)(=O)NCCCN2CCCC2=O)ccc1Cl	0	3	-5	·	·	-15	·	·
Cc1ccc(/C=C/C(=O)Nc2ccc(S(=O)(=O)Nc3cc(C)nc(C)n3)cc2)cc1	1	-4	·	i	2	2	3	4
Cc1ccc(C)c(S(=O)(=O)N2CCN(C(=O)CCNS(=O)(=O)c3ccccc3)CC2)c1	-5	0	-6	i	4	-7	-5	·
O[C@@H]1CN(C2CCCCC2)CC[C@H]1N1CCN(CCc2ccccc2)CC1	1	2	2	i	5	-13	6	·

Pulled by compound from the list above (4):
SMILES	MT1-MMP act inh	MT1-MMP act inh RFP	CSC inhib	Rce1 inh	eIF4H FP inh	UUG fidelity	PABP polyA inh	Env fusion inh
O=C(O)c1cc(S(=O)(=O)NCCCN2CCCC2=O)ccc1Cl	0	3	-5	·	·	-15	·	·
Cc1ccc(C)c(S(=O)(=O)N2CCN(C(=O)CCNS(=O)(=O)c3ccccc3)CC2)c1	-5	0	-6	i	4	-7	-5	·
Cc1ccc(/C=C/C(=O)Nc2ccc(S(=O)(=O)Nc3cc(C)nc(C)n3)cc2)cc1	1	-4	·	i	2	2	3	4
CCn1c(SCC(=O)NC2CC2)nnc1-c1ccncc1	1	3	-3	i	-10	-19	-4	-10

(listing goes on)
SMILES	MT1-MMP act inh	MT1-MMP act inh RFP	CSC inhib	Rce1 inh	eIF4H FP inh	UUG fidelity	PABP polyA inh	Env fusion inh
Cc1ccccc1NS(=O)(=O)c1cccc(C(=O)Nc2cccc(C(=O)O)c2)c1	-1	2	-2	i	-17	-5	-1	2
O=C(NCc1ccc2c(c1)OCO2)c1ccc2c(c1)OCO2	1	1	-7	i	-2	-13	-3	-34
Cc1ccccc1CSc1nnc2ccc(-c3ccncc3)nn12	-5	-2	·	i	-4	-10	-13	18
CCOC(=O)Cn1c(=O)c2c(nc(N3CCCCC3)n2Cc2ccccc2)n(C)c1=O	-6	-8	62	·	-5	13	26	·
Cc1ccc(Nc2nnc(SCn3nnc4ccccc4c3=O)s2)cc1	11	0	0	i	6	-11	-4	·
Clc1cccc(N=NN2CCOCC2)c1Cl	0	-3	12	i	-9	·	4	3
COc1cccc(-n2c(SC3CCOC3=O)nc3ccccc3c2=O)c1 (configuration not stated)	4	7	-4	i	0	1	10	6
CC(=O)Nc1ccc(S(=O)(=O)NC(CC(=O)N(C)Cc2ccccc2)C(C)C)cc1 (configuration not stated)	7	0	-16	i	4	-8	1	·
CCOC(=O)c1c(C)nc2sc(C(N)=O)c(N)c2c1-c1ccccc1	-8	-10	7	i	-2	-18	-11	·
CCOc1ccc(NCc2ccccc2OCc2cccc(F)c2)cc1	4	1	58	i	-25	·	-7	-46
CCc1nc2ccc(C(=O)NCCCn3ccnc3)cn2c1N(C)Cc1ccc(N(C)C)cc1	1	3	·	·	·	-20	·	13
COc1ccc(C(CNC(=O)COc2ccc([N+](=O)[O-])cc2)N2CCCCC2)cc1 (configuration not stated)	-1	-1	·	i	-16	-15	1	2

Three entries from above in a different format.
Value order – MT1-MMP act inh | MT1-MMP act inh RFP | CSC inhib | Rce1 inh | eIF4H FP inh | UUG fidelity | PABP polyA inh | Env fusion inh
> CC12CCC(=O)N1C(C(=O)NNC(=O)c1ccc(F)cc1)CS2 (configuration not stated)
    12 | 0 | -9 | i | · | · | · | 20
> O=C(Nc1ccc(NC(=O)c2ccccc2F)cc1)c1ccccc1F
    -2 | -3 | · | i | 8 | 8 | 3 | -3
> Cc1cc(C(=O)Nc2ccccn2)no1
    -2 | 3 | 9 | i | -8 | 4 | 1 | ·

More results.
SMILES	MT1-MMP act inh	MT1-MMP act inh RFP	CSC inhib	Rce1 inh	eIF4H FP inh	UUG fidelity	PABP polyA inh	Env fusion inh
COc1ccc([N+](=O)[O-])cc1NC(=S)NC(=O)C(C)(C)C	1	-3	-4	i	10	-8	-13	6
COc1nc(-c2ccccc2)cc(-c2ccc3c(c2)OCO3)c1C#N	-10	-15	38	i	-6	·	-4	-5
Cc1cccc(N2CCN(S(=O)(=O)c3cn(C)cn3)CC2)c1C	7	4	·	i	19	-15	2	2
COc1cc(OC)c(-c2noc(C(=O)OC(C)(C)C)c2C(=O)OC(C)(C)C)c(OC)c1	6	8	12	i	-5	·	0	25
CCOC(=O)c1c(NC(=O)COC(=O)Cn2c(C(F)(F)F)nc3ccccc32)sc(C)c1C	5	-2	-2	i	5	·	5	·
COC(=O)c1cc(OC)c(OC)c(OC)c1[N+](=O)[O-]	1	2	0	i	-5	-2	-8	-10
COc1ccc2noc3c2c1C(=O)c1ccccc1-3	-26	61	?	i	·	7	·	0
CCc1noc(C)c1C(=O)OC(C)C(=O)Nc1cc([N+](=O)[O-])ccc1OC (configuration not stated)	0	-2	-6	i	·	·	·	1
CC(=O)c1ccc(OCC(=O)c2ccc(-c3ccccc3)cc2)cc1	-3	-2	41	i	0	·	-3	3
CC(C)=NNc1nc2c(c(=O)n(C)c(=O)n2C)n1C	0	0	14	i	-21	-18	2	-4
O=C(NNC(=O)C1CCN(c2ncccn2)CC1)c1ccc(F)cc1	-3	-1	-3	i	-11	-21	-2	-4

Record cards, from the list above.
O=C(NNC(=O)C1CCN(c2ncccn2)CC1)c1ccc(F)cc1 is entered as MT1-MMP act inh: -3; MT1-MMP act inh RFP: -1; CSC inhib: -3; Rce1 inh: i; eIF4H FP inh: -11; UUG fidelity: -21; PABP polyA inh: -2; Env fusion inh: -4
COc1nc(-c2ccccc2)cc(-c2ccc3c(c2)OCO3)c1C#N is entered as MT1-MMP act inh: -10; MT1-MMP act inh RFP: -15; CSC inhib: 38; Rce1 inh: i; eIF4H FP inh: -6; UUG fidelity: ·; PABP polyA inh: -4; Env fusion inh: -5
